# GLS inhibitor: qHTS for Inhibitors of Glutaminase (GLS); 0.21% of 410,000 active; Glutaminase kidney isoform, mitochondrial (Homo sapiens), O94925; AID 624170, 2012; GLS enzymatic activity, qHTS titration; Potency, µM (top dose mostly 45.5 µM), for inactives: at the highest dose activity change, negative = inhibition, usual class: inhibitors; note: potency is the fitted concentration of half-maximal effect
#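 Compounds were pin-transferred onto hKGA, after which L-glutamine (1 mM solution) and a detection mix of glutamate oxidase, HRP and Amplex Red were added. Initial and 30 min RT fluorescence reads were collected.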
# POLH inh: qHTS for Inhibitors of Polymerase Eta; recombinant Pol eta, fluorescent DNA replication assay; 1.2% of 390,000 active; Potency, µM (highest dose often 114 µM), for the others: at the highest dose activity change, negative = inhibition, most hits filed as inhibitors; AID 588591, 2011; DNA polymerase eta (Homo sapiens), Q9Y253; note: potency is the fitted concentration of half-maximal effect
# Target sequence (Q9Y253 whole entry, looked up): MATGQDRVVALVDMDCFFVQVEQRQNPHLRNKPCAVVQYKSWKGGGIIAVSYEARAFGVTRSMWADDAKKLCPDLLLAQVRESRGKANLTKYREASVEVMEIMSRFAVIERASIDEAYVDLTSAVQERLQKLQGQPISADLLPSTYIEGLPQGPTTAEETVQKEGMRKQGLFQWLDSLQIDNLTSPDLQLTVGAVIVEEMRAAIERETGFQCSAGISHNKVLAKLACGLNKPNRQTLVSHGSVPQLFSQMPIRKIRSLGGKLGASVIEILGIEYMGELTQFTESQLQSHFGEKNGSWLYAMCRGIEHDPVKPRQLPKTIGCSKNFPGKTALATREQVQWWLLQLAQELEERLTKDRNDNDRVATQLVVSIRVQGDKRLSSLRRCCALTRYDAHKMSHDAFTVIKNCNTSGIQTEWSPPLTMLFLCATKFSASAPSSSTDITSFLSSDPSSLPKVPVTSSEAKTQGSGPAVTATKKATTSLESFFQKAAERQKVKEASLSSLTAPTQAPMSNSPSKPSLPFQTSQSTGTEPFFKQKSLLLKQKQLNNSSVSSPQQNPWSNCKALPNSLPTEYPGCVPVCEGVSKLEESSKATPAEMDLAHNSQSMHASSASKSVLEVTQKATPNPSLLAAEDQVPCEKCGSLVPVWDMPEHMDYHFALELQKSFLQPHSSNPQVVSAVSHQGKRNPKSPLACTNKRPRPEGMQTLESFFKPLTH
#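 Pol eta at 10 nM preincubated with compounds 15 min at room temperature; reaction started with fluorescent substrate (50 nM final) and read kinetically at 0 and 10 min.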
# Tb PGK inh: qHTS Assay to Find Inhibitors of Phosphoglycerate Kinase. Phosphoglycerate kinase, glycosomal (Trypanosoma brucei brucei), P07378. PGK/GAPDH coupled, Kinase-Glo luminescence, 60 min. Potency, µM (highest dose often 57.5 µM), for the others: at the highest dose activity change, negative = inhibition, usual class: inhibitors. 0.043% of 380,000 active. AID 602233, 2012; note: potency is the fitted concentration of half-maximal effect; nearly all actives have a fitted effect of over 60% in size
#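 Recombinant glycosomal PGK reaction used 1,3-bisphosphoglycerate generated in-well by GAPDH (100nM final) in 100mM TEA pH 7.6, 5mM MgCl2, 0.01% Tween-20. After 60 minutes at room temperature, ATP was read by Kinase-Glo Plus luminescence end-point.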
# Pin1 inh: qHTS Assay to Find Inhibitors of Pin1. Pin1 FP peptide displacement, HiFluor488, 10 min. Potency, µM (titrated, usually from 115 µM), for the others: at the top dose activity, negative = inhibition, usual class: inhibitors. 0.009% of 390,000 active. AID 504891, 2011; active = well fitted inhibition curve with a large enough effect in the polarisation, with a control signal flat, not every such curve was filed as active; inconclusive = small, poorly fitted or top-dose-only effect, or effect the other way, or a change in a side signal; inactive = no such curve, though single readings can be large or run the other way; the % refers to the polarisation; note: potency is the fitted concentration of half-maximal effect
# Target sequence (Q13526 whole entry, looked up): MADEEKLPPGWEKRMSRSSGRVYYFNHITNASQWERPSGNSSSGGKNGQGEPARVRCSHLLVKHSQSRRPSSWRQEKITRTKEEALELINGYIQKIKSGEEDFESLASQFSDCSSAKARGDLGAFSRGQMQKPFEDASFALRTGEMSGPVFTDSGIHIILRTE
# PI4K2A block: qHTS for small molecular inhibitors of PI4K2A. Phosphatidylinositol 4-kinase type 2-alpha (Homo sapiens), Q9BTU6. purified PI4K2A, ADP-Glo luminescence, 1 h; stronger effect = lower value. activity change, negative = inhibition, % at 76.9 µM. 0.13% of 420,000 active. AID 1346378, 2018; in the data active = activity change below about -50%; inconclusive = mostly about -30% to -49%;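 note: -100% = wells without enzyme as full effect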
#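 PI4K2A activity was measured by ADP-Glo luminescence: enzyme (4 ug/mL stock) and phosphatidylinositol (1.2 mM stock) in Tris pH 7.5/MgCl2/EGTA/Triton X-100 buffer were reacted with ATP (300 microM stock) for one hour at ambient temperature.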
# Numbers without * were called inactive; i = inactive; ? = inconclusive; / = no result given; & = joins results of further samples; [ ] = remark or other dose. Unless noted, calls come from the whole dose curve; as a rule, active = well fitted curve in the direction sought with a large enough effect; inconclusive = small, poorly fitted or top-dose-only effect, or another doubt; inactive = no such curve, though single readings can be large; an effect the other way counts as inactive or inconclusive. Unless noted, % is set by controls: 0 for no effect and ±100 for the full control effect. These rows are one share of the data; count on the stated rates, not on these rows.
Structure | POLH inh | Pin1 inh | Tb PGK inh | GLS inhibitor | PI4K2A block
CCOC(=O)c1sc(=S)n(C)c1NC(=O)c1ccccc1Cl | -2% | 0% | i | -12% | -1
CCOC(=O)c1ccc(Nc2cc(-c3ccccc3)nc(C)n2)cc1 | -18% | 4% | 2% | 9% | -1
Cc1nc(SCC(=O)c2c[nH]c3ccccc23)n[nH]1 | 1% | 4% | 2% | 2% | 3
Cc1cccc2sc(NC(=O)CN(C)S(=O)(=O)c3cccs3)nc12 | -8% | 3% | -8% | -1% | 5
CCOC(=O)c1sc(NC(=O)CSc2n[nH]c(-c3ccncc3)n2)c(C#N)c1C | 8% | 29% | -6% | 0% | -6
O=[N+]([O-])c1cc(Cl)ccc1N1CCCC1 | -12% | -1% | i | -5% | 0
CCN(CC)CCn1c2ccccc2c2n[nH]c(=S)nc21 | -4% | 0% | -3% | -13% | -8
S=c1nc(-c2cccc(Br)c2)[nH][nH]1 | -16% | -15% | -6% | -26% | 6
CC(=O)C1=NN(c2ccccc2)C(c2ccc3c(c2)OCO3)N1c1ccc(N2CCOCC2)cc1 (stereo unspecified) | -2% | 36%[activator] | i | 2% | 2
Cc1ccc(C(=O)n2ncn(C)c2=S)cc1 | -13% | -15% | -6% | -1% | -4
COC(=O)c1ccc(CSc2nnc(C)n2N)o1 | -23% | -4% | 1% | 4% | 1
O=C1C2CCCN2C(=S)N1c1ccc(Cl)cc1 (stereo unspecified) | -7% | -3% | 3% | -5% | -6
CCOc1ccc(N2C(=O)C3CCCN3C2=S)cc1 (stereo unspecified) | -2% | -8% | -10% | 6% | -6
O=C(O)c1c2c(nc3ccccc13)CCCCC2 | 8% | 51%[activator] | -5% | 7% | 4
CC1Cc2ccccc2N1C(=O)CNCCCN(C)C (stereo unspecified) | -7% | -11% | -5% | 4% | 16
Cc1ccc(S(=O)(=O)C(C#N)c2nc3ccccc3nc2N2CCC(C)CC2)cc1 (stereo unspecified) | -4% | ? | -5% | 4% | 0
Cc1ccccc1C(=O)OCc1cc(=O)n2nc(C(C)C)sc2n1 | -22% | -6% | -9% | 3% | 0
NS(=O)(=O)c1ccc(NC(=O)CN2CCN(c3ccc(F)cc3)CC2)cc1 | -11% | 2% | 3% | -4% | -2
CCN1CCN(CC(=O)Nc2ccc(Cl)c(S(=O)(=O)N(C)C)c2)CC1 | -9% | 5% | i | -2% | 5
COC(=O)c1ccc(CSc2ccccc2C)o1 | -11% | -3% | -3% | 0% | -3
CCc1cccc(CC)c1NC(=O)CN1CCN(c2ccccc2)CC1 | -13% | 3% | -9% | 34%[activator] | -2
O=C(O)c1cccnc1Oc1ccccc1 | 1% | -2% | -10% | 8% | 4
Cc1cc(C)n(-c2cc(-c3ccccc3)nc(C)n2)n1 | -7% | 1% | -2% | 65%[activator] | -1
CCOC(=O)c1ccc(NC(=S)Nc2ccc(C)cc2)cc1 | -5% | 3% | -1% | 13% | 5
COc1ccc(OC)c(-n2c(-c3cccc(O)c3)n[nH]c2=S)c1 | -1% | -3% | 5% | -6% | -2
CCCNC(=O)COC(=O)c1c2c(nc3ccccc13)CCC2 | 50µM* | -13% | -5% | ? | -5
CCOc1ccc2c(c1)-c1c(ssc1=S)C(C)(C)N2C(=O)c1ccco1 | -26% | 2% | i | -7% | 1
COc1cccc(CC2(CO)CCCN(CC3=Cc4cc(Cl)ccc4OC3)C2)c1 (stereo unspecified) | -21% | 3% | 0% | -5% | 4
O=C(OCC(=O)N1CCc2ccccc21)c1c2c(nc3ccccc13)CCCCC2 | ? | 19% | -6% | 7% | -2
COc1cccc(CC2(CO)CCCN(Cc3ccc(-c4ccco4)cc3)C2)c1 (stereo unspecified) | -16% | 42%[activator] | -6% | ? | 5
COCCCn1c(SCC(=O)NC(C)(C)C)nnc1-c1ccccc1 | -3% | -4% | -8% | 8% | 7
C/C(CC(C)C)=N/Nc1ccc([N+](=O)[O-])cc1[N+](=O)[O-] | -23% | -9% | -1% | 9% | 3
COc1ccc(C2NC(=S)N3C(c4ccc(OC)cc4)NC(=S)N23)cc1 (stereo unspecified) | -13% | 2% | i | 37%[activator] | -4
O=C(COC(=O)c1c2c(nc3ccccc13)CCCCC2)NCc1ccc2c(c1)OCO2 | -15% | 57%[activator] | -10% | 4% | 2
CC1CN(Cc2ccc(Cl)cc2Cl)CC(C)O1 (stereo unspecified) | -3% | -2% | 1% | 7% | -5
Cc1[nH]nc(-c2ccc(O)cc2O)c1-c1ccc(Cl)cc1 | -7% | -10% | -5% | 7% | -6
CCCCN=C(C)c1c(O)c2ccccc2oc1=O | -8% | 4% | 0% | -8% | -3
COc1ccccc1N(CC(=O)Nc1ccccc1)S(=O)(=O)c1cccs1 | -15% | 7% | 1% | 13% | 1
COc1ccccc1C(CC(=O)Nc1ccc(C)c(C)c1)c1ccc(OC(C)C)cc1 (stereo unspecified) | -19% | -1% | i | 8% | 5
Cc1cccc(-c2noc(-c3ccc(Cl)cc3[N+](=O)[O-])n2)c1 | -4% | -16% | -5% | 9% | 2
FC(F)(F)c1ccc(CSc2nccn2-c2ccccc2)cc1 | -19% | 4% | 3% | 3% | 1
O=[N+]([O-])c1cccc(C(=S)N2CCN(c3ccc(F)cc3)CC2)c1 | -10% | 0% | -8% | 10% | -3
CC(Oc1ccccc1)C(=O)Nc1ccc(C(=O)OCc2cc(=O)n3nc(C(C)C)sc3n2)cc1 (stereo unspecified) | -7% | 8% | i | -4% | 2
COc1ccccc1N1CCN(Cc2ccsc2)CC1 | -3% | -12% | -8% | 13% | 0
CC(C)n1cnc2c(NCc3ccccc3)nc(NCc3ccccc3)nc21 | -19% | -1% | -1% | 5% | -5
Cc1c(-c2nc(-c3cccnc3)no2)cccc1[N+](=O)[O-] | -27% | 19% | -10% | -10% | 2
COc1ccc(N2C(=O)C3CCCN3C2=S)cc1 (stereo unspecified) | -3% | 0% | -4% | 2% | -11
O=C(CCS(=O)(=O)c1ccc(Br)cc1)Nc1ccccc1Cl | -3% | -17% | -16% | 1% | 5
CC(C)(C)c1ccc(C(=O)c2c[nH]c(C(=O)NCCCn3ccnc3)c2)cc1 | -13% | 0% | -3% | / | -3
Cc1nc(SCC(=O)Nc2ccccn2)n[nH]1 | -20% | 1% | -9% | 4% | 1
CCOC(=O)c1c(-c2ccc(C)o2)csc1NC(=O)CN(C)CC(=O)Nc1ccc(C)cc1 | ? | -3% | -1% | -4% | 10
Cc1c(N=Cc2ccccn2)c(=O)n(-c2ccccc2)n1C | -12% | -2% | 3%[11.5 µM] | 14% | -3
O=C(c1cccc2ccccc12)N1CCN(Cc2ccccc2F)CC1 | 0% | -12% | -2% | -3% | 1
CN1CCN(S(=O)(=O)c2cccc(C(=O)Nc3ccccc3N3CCCCC3)c2)CC1 | 5% | -4% | -1% | 19% | -7
Cc1ccc(S(=O)(=O)C(C#N)c2nc3ccccc3nc2OC(C)C)cc1 (stereo unspecified) | -10% | ? | / | 12% | -4
CCOC(=O)CNC(=O)c1ccccc1 | 2% | -3% | -9% | 1% | 10
COc1ccc(CNCc2cccc(Oc3ccccc3)c2)cc1 | -14% | 0% | -8% | 122%[activator] | -1
CCOC(=O)c1ccc(CSc2n[nH]c(C)n2)o1 | -6% | 1% | -1% | 3% | 1
O=C(CSc1ncn[nH]1)CSc1ncn[nH]1 | -7% | 1% | -5% | 5% | -18
COc1ccc(CNC(=O)CCSCc2cccc(Cl)c2)cc1 | -19% | -6% | -6% | 9% | -2

# The list goes on.
Structure | POLH inh | Pin1 inh | Tb PGK inh | GLS inhibitor | PI4K2A block
OC(COCCOc1ccc(Br)cc1)CN1CCCCC1 (stereo unspecified) | -20% | -8% | -1% | -9% | -3
COc1ccc(CNCc2ccc3c(c2)n(C)c(=O)n3C)cc1 | -14% | 2% | -2% | -5% | -1
Cn1c(-c2ccc(F)cc2)cnc1NCc1ccc(F)cc1 | -7% | -8% | 9% | 8% | 4
CCOC(=O)CCSc1n[nH]c(=S)s1 | -4% | 1% | -6% | -1% | -7
CC(=O)Nc1ccc(NC(=O)CN(c2ccccc2Cl)S(C)(=O)=O)cc1 | 1% | 5% | / | 1% | -5
Cc1ccc(S(=O)(=O)C(C#N)c2nc3ccccc3nc2N2CCCC2)cc1 (stereo unspecified) | -10% | ? | -5% | 19% | 0
CCc1nc(SCC(=O)c2cc(C)ccc2C)n[nH]1 | -10% | -6% | -2% | 5% | 17
Brc1ccc(CSc2ncn[nH]2)cc1 | -8% | -2% | -4% | 5% | 10
O=C(Nc1nc(-c2ccco2)c(-c2ccco2)s1)c1ccco1 | ? | ? | -4% | -1% | -17
CSCC[C@@H](C(=O)O)N1Cc2ccccc2C1=O | -1% | -10% | -3% | -4% | -4
CS(=O)(=O)c1cccc(C(=O)Nc2ccc(S(=O)(=O)N3CCCCC3)cc2)c1 | -10% | -1% | -6% | -4% | 4
Cc1ccc(-c2csc(Nc3ccccc3)[n+]2CCc2ccccc2)cc1 | -18% | 3% | -5% | -3% | -1&0
Cc1ccc(Cl)cc1N(CC(=O)Nc1cccc(N(C)S(C)(=O)=O)c1)S(C)(=O)=O | -21% | 1% | i | -3% | 4
Cc1ccc(N2C(=O)C3C4C=CC(CNC(=S)Nc5ccc(Cl)cc5)(O4)C3C2=O)cc1 (stereo unspecified) | -19% | 13% | i | -7% | 2
O=C(O)c1ccccc1CSc1ncn[nH]1 | -5% | 5% | i | 1% | 3
O=C(CCCn1cnc([N+](=O)[O-])n1)Nc1ccc(F)c(Cl)c1 | -16% | -4% | i | -4% | 9
O=[N+]([O-])c1ccc(CN2CCN(c3ncccn3)CC2)cc1 | -9% | -5% | -2% | 3% | 3
COC(=O)c1ccc(CSc2n[nH]c(=S)s2)o1 | -14% | -11% | -6% | -1% | -6
CCOC(=O)N1CCN(c2nc3ccccc3nc2C(C#N)S(=O)(=O)c2ccc(C)cc2)CC1 (stereo unspecified) | -5% | ? | 4% | 29% | -3
COC(=O)c1ccc(CSc2nc3ccccc3[nH]2)o1 | 0% | -10% | 10% | -6% | -2
Cc1cccc2c1N(CCCOc1ccccc1)C(=O)C2=O | -14% | ? | -7% | 10% | 31
O=C(Nc1ccccc1[N+](=O)[O-])C1C(c2ccccc2)=C1c1ccccc1 | -14% | -1% | -4% | 0% | 5
O=C(Nc1ccc2c(c1)CCC2)c1cccc(S(=O)(=O)N2CCN(c3ccccc3)CC2)c1 | 0% | 43%[activator] | -3% | 4% | 8
CC(C)Cc1nn2c(=O)cc(COC(=O)c3ccccc3NC(=O)c3ccccc3)nc2s1 | -14% | -11% | 4% | -16% | -4
CCOC(=O)c1sc(NC(=O)CSc2nc3c(cc2C#N)CCCCC3)c(C#N)c1C | -6% | 46%[activator] | -6% | 1% | -4
Cc1cc(C)c2nc(N(CCCN(C)C)C(=O)c3ccc4c(c3)CCCC4)sc2c1 | -11% | -24% | 0% | -2% | 0
Cc1ccc(C(=O)CSc2n[nH]c(C)n2)cc1 | -10% | -2% | -7% | 3% | 2
CS(=O)(=O)c1ccccc1-c1nc(-c2ccc([N+](=O)[O-])cc2)no1 | 8% | 6% | 1% | -13% | 7
CCc1nc(SCC(=O)c2ccc(C)c(C)c2)n[nH]1 | -21% | -8% | 5% | 5% | 7
CC(=O)N1CCN(S(=O)(=O)c2cccc(C(=O)NNC(=O)COc3ccc(F)cc3)c2)CC1 | -10% | 5% | -3% | 23% | -5
CCOC(=O)c1cnn(CCOC(=O)c2ccc(OC)cc2)c1NC(=O)c1ccc(OC)cc1 | -9% | 40%[activator] | -8% | 9% | 0
COc1cccc(C(=O)N2CCN(CCCc3ccccc3)CC2)c1OC | 2% | -3% | / | 2% | 6
